Compound activity from PubChem BioAssay.
GALR2 ag: activates the human galanin receptor 2; O43603; GALR2-expressing cells, agonist activation read-out; AID 803; activation, %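 (tested at 5 µM)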; actives 0.48% (n = 140,000);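 active = above mean plus 3 SD of all compounds, about 5% in these data, not always enough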;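 note: 0% = vehicle buffer wells and 100% = reference agonist at full effect; tested in CHO reporter cells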
Target sequence (O43603 whole entry, looked up): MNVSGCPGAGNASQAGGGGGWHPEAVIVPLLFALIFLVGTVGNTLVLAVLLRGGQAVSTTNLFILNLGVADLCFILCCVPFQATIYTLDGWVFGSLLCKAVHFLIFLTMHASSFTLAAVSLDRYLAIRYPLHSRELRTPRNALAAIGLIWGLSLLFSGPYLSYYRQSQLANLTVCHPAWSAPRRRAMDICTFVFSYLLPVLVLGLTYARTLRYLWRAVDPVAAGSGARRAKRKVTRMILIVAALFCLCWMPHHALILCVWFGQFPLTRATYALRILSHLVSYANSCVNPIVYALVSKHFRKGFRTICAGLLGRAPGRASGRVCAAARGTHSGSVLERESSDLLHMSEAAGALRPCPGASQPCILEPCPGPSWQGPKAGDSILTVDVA
PKD1 inh: blocks activity of human protein kinase D1. Q15139. PKD1 kinase fluorescence polarization assay. inhibition, %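 (about 10 µM by stock and volumes)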. actives 0.056% (n = 200,000);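 active = inhibition of 50% or more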;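 note: controls were vehicle for no effect and a reference inhibitor for full effect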
HSV augment: HSV replication enhancement | HSV replication augmentation in cells, fold increase | maximum fold increase | actives 0.005% (n = 220,000) | AID 1956;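 active = peak rise of 1.5-fold or more in the series; tested in PC3 cells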;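 note: first round at 10 µM; read as green reporter fluorescence; hits show the peak of a series up to 25 µM; 1 = signal of infected wells without compound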
INS promoter inh: TRM-6 insulin promoter activity inhibition | TRM-6 cells (human fetal islet line), insulin promoter-eGFP reporter, imaging; reporter expression induced with tamoxifen | inhibition, % at 2 µM | actives 0.9% (n = 130,000) | AID 1273;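 active = inhibition above the mean plus 3 SD, with well images judged a real hit on visual review, cut at about 60% in these data, passing the limit was not always enough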
RGS16-Gao HTS: regulators of human RGS16-Galphao interaction. actives 0.38% (n = 220,000). binding response (% of control), % at 10 µM. AID 1441. bead-based flow cytometry RGS16-Galphao binding, fluorescence; actives lie on both sides;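 active = below 25% or above 175%, edge rows of some plates excepted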;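 note: Galphao activated by GDP with aluminum fluoride before binding; 100% = wells without compound and 0% = beads without RGS; some results beyond the cut were filed as inactive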
Target sequence (O15492 whole entry, looked up): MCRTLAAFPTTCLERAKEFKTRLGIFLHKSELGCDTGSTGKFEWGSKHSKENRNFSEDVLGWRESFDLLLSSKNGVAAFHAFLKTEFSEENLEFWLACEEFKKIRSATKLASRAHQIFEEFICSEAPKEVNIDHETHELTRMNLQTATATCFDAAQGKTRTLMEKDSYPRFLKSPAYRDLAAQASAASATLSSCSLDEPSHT
Target sequence (P09471 whole entry, looked up): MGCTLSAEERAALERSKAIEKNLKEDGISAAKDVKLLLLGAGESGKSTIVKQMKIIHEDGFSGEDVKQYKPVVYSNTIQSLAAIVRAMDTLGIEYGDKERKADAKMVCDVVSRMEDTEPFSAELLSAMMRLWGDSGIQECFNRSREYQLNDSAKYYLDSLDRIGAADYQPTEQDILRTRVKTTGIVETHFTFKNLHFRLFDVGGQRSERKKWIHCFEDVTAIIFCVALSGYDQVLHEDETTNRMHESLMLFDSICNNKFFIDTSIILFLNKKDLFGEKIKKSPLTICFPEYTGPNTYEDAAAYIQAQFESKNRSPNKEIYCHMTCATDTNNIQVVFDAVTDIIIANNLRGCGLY
INS promoter inh cell count: also measured in INS promoter inh; calls as there; normalized cell count, %; measured here: cell count, toxicity; reference of the scale not given here;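 cells exposed to compound for 48 h; stained nuclei by imaging scaled within each plate; lower means fewer cells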
HSV augment primary fold: second read-out of HSV augment, no call of its own (marks repeat the call); fold increase; compound at 10 µM; measured here: primary screen fold increase 10 uM; tested in PC3 cells;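 GFP signal in the first replicate; 1 = infected wells without compound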
* marks the source's active call; other numbers are inactive results; i = inactive; · = not tested or not shown.

Under each structure – GALR2 ag	PKD1 inh	HSV augment	HSV augment primary fold	INS promoter inh	INS promoter inh cell count	RGS16-Gao HTS
> CC(=O)c1cccc(S(=O)(=O)N2CCC(C(=O)O)CC2)c1
    ·	-4	i	0.99	29	116	100
> COc1ccccc1NS(=O)(=O)c1cc([N+](=O)[O-])ccc1N/N=C/c1c[nH]c2ccccc12
    -3.2	-1	i	1.3	-264	92	102
> Cc1cccn2c(CNCC(C)Oc3cccnc3)c(C(=O)N3CCOCC3)nc12 (configuration not stated)
    ·	·	i	1.1	·	·	104
> CCc1c(-c2n[nH]c(=S)n2Cc2ccccc2)csc1C
    -0.6	-13	i	0.96	38	106	60
> O=C(O)COc1ccc(C(=O)Cc2ccc3c(c2)OCCCO3)c(O)c1
    -1.7	-6	i	0.85	42	139	99
> Cc1scc(C(=O)NNC(=O)CCC(=O)O)c1C
    ·	-8	i	1	·	·	107
> Cc1ccc(C)c(NC(=O)CSc2nc3ccc(N4C(=O)c5ccccc5C4=O)cc3s2)c1
    -1.0	10	i	0.88	-3	119	99
> CCc1ccccc1NC(=S)N(Cc1cccs1)C1CCCC1
    ·	1	i	0.97	·	·	101
> CCN(CC)CCNC(=S)NC(=O)c1cn(-c2ccccc2)nc1-c1ccc(OC)cc1
    ·	-3	i	0.64	·	·	99
> CCOc1ccc2c(c1)-c1c(ssc1=S)C(C)(C)N2
    -1.3	0	i	0.65	-46	45	97
> CCn1c(Cc2ccccc2)n[nH]c1=S
    ·	·	i	0.82	·	·	98
> Cc1cccc(N2CCN(C(c3ccccc3)c3nnnn3CC3CCCO3)CC2)c1C (configuration not stated)
    -1.2	-11	i	1	·	·	100
> CCc1ccc(NC(=O)C(=O)NCCN2CCN(C(=O)c3ccco3)CC2)cc1
    -2.1	-2	i	1.1	-100	135	101
> CCOc1ccccc1NC(=O)Nc1cnccn1
    ·	3	i	1	-20	114	104
> Cc1sc2ncnc(NCc3cccs3)c2c1C
    -1.6	-6	i	0.88	44	199	104
> Cc1ccccc1NC(=S)N(Cc1ccccc1)Cc1cccnc1
    ·	7	i	0.93	·	·	102
> COc1ccc2cc(C#N)c(SCC(=O)N3CCCC3)nc2c1
    0.1	-3	i	0.82	21	141	105
> O=C(c1cccnc1)N1CCN(S(=O)(=O)c2ccc(Cl)cc2)CC1
    -1.8	3	i	0.91	6	139	98
> Cc1ccc(-n2c(SCC(=O)Nc3ccc4cn[nH]c4c3)nnc2-c2ccco2)cc1
    0.1	-6	i	0.96	35	122	77
> COc1ccc(/C=C/C(=O)OCC(=O)c2c(C)[nH]c3ccccc23)cc1OC
    -3.2	-8	i	0.86	-92	47	89
> CCN(CC)Cc1ccc(OC)c(Cl)c1
    ·	·	i	1.3	·	·	101
> COc1ccc(C2=NO[C@@H]3[C@@H]4C[C@@H]([C@H]5C(=O)N(c6ccc7c(c6)OCO7)C(=O)[C@@H]45)[C@H]23)cc1OC
    -1.8	-3	i	0.92	6	141	104
> COc1ccc(OC)c(NC(=O)C(=O)NCc2ccncc2)c1
    0.3	2	i	0.95	-10	102	84
> Cc1nc2sc(C(c3cccc(F)c3)N3CCOCC3)c(O)n2n1 (configuration not stated)
    -1.4	-5	i	0.98	-104	178	99
> CC1Cc2ccccc2N1C(=O)Cc1cccs1 (configuration not stated)
    -0.8	3	i	1.2	-397	59	101
> CCOC(=O)c1[nH]c2ccccc2c1NC(=O)C(CC)CC
    -0.7	-13	i	0.89	·	·	107
> CCCNC(=O)CN1C(=O)NC(CCSC)C1=O (configuration not stated)
    ·	·	i	0.99	·	·	94
> C=CCN1C=C2C(=O)C(C)(OC(=O)CCC(=O)OC)C(=O)C=C2C=C1C1CC1 (configuration not stated)
    ·	·	i	1.1	·	·	102
> CC(C)C(=O)Nc1cccc(C(=O)Nc2cc([N+](=O)[O-])ccc2Cl)c1
    ·	-2	i	0.87	·	·	102
> CCC(=O)Nc1ccc(/C(C)=N/NC(=O)c2c(-c3ccccc3Cl)noc2C)cc1
    -1.4	11	i	1.1	35	108	102
> COc1ccc(NC(=O)Cn2cc(S(=O)(=O)Cc3ccccc3)c3ccccc32)c(OC)c1
    -3.2	-4	i	1	·	·	93
> O=c1[nH]c(Nc2ccccc2)cc2ccccc12
    1.8	-11	i	1	·	·	107
> COc1ccc(N(CC(=O)Nc2cccc(C(C)=O)c2)S(C)(=O)=O)cc1OC
    -0.8	-4	i	0.9	19	96	108
> c1cncc(-c2cccnc2)c1
    -2.5	-4	i	0.95	0	82	102
> CC(C)(C)c1ccc(NC(=O)Nc2ccc(OCC(=O)N3CCOCC3)cc2)cc1
    ·	6	i	0.89	-12	129	113
> C#CCNC(=O)C1=C[C@@H](c2cn(C(C)=O)c3ccccc23)C[C@@H](OCCCCO)O1
    ·	0	·	·	·	·	106
> COc1ccc(CN2CCC(C(=O)NCCc3ccc(OC)c(OC)c3)CC2)c(OC)c1
    -1.1	-2	i	1	-74	126	114
> COc1cc(NS(=O)(=O)c2ccc(NC(=O)COc3ccc(C)cc3C)cc2)nc(OC)n1
    -2.6	1	i	0.94	-12	55	126
> CCO[C@H]1OC(C(=O)N2CCN(C)CC2)=C[C@@H](c2ccc(C(F)(F)F)cc2)[C@@H]1CCCO
    ·	6	i	0.92	·	·	105
> CCOc1cc(N2CCOCC2)c(OCC)cc1NC(=O)CN1C(=O)NC(Cc2ccccc2)C1=O (configuration not stated)
    -0.4	1	i	0.9	·	·	105
> O=S(=O)(Cc1ccc(Cl)cc1)Nc1ccc(Cl)cn1
    ·	5	i	1.1	·	·	88
> c1ccc(-c2csc(-c3cccnc3)n2)cc1
    ·	-3	i	0.96	·	·	104
> COc1ccc2cc(C(=O)COC(=O)COc3ccc4c(C)cc(=O)oc4c3)ccc2c1
    0.3	-3	i	1.2	·	·	103
> N#Cc1cc2c(nc1SCC(=O)Nc1nccs1)CCCCC2
    6.5	-1	i	0.87	-56	154	99
> COc1ccccc1CC(=O)Nc1cc(Cl)ccc1O
    -4.9	6	i	0.8	5	138	104

Fetched by compound from the entries so far (6):
Under each structure – GALR2 ag	PKD1 inh	HSV augment	HSV augment primary fold	INS promoter inh	INS promoter inh cell count	RGS16-Gao HTS
> Cc1cccc(N2CCN(C(c3ccccc3)c3nnnn3CC3CCCO3)CC2)c1C (configuration not stated)
    -1.2	-11	i	1	·	·	100
> Cc1cccn2c(CNCC(C)Oc3cccnc3)c(C(=O)N3CCOCC3)nc12 (configuration not stated)
    ·	·	i	1.1	·	·	104
> CC(C)C(=O)Nc1cccc(C(=O)Nc2cc([N+](=O)[O-])ccc2Cl)c1
    ·	-2	i	0.87	·	·	102
> CCN(CC)Cc1ccc(OC)c(Cl)c1
    ·	·	i	1.3	·	·	101
> CCN(CC)CCNC(=S)NC(=O)c1cn(-c2ccccc2)nc1-c1ccc(OC)cc1
    ·	-3	i	0.64	·	·	99
> COc1ccc(C2=NO[C@@H]3[C@@H]4C[C@@H]([C@H]5C(=O)N(c6ccc7c(c6)OCO7)C(=O)[C@@H]45)[C@H]23)cc1OC
    -1.8	-3	i	0.92	6	141	104

Continued:
Under each structure – GALR2 ag	PKD1 inh	HSV augment	HSV augment primary fold	INS promoter inh	INS promoter inh cell count	RGS16-Gao HTS
> CC1CCC(NC(=O)c2ccc(/C=C3\Oc4ccccc4N(C)C3=O)cc2)CC1 (configuration not stated)
    -2.1	4	i	0.8	13	112	104
> CC(C)N=C(NS(=O)(=O)c1ccc(Br)cc1)c1ccc(Cl)cc1
    ·	-12	i	1.1	·	·	103
> CCCCNC(=O)COC(=O)c1ccc(N(C)C)cc1
    ·	0	i	1.1	·	·	100
> NC(=O)C1(N2CCCCC2)CCN(c2nc(-c3ccc(Br)cc3)cs2)CC1
    -0.9	3	i	0.82	46	92	101
> CCN(CC(=O)Nc1ccccc1OC)C(=O)Cn1cnc2ccccc2c1=O
    -2.3	8	i	0.79	-6	129	104
> CCOC(=O)c1c(-c2ccc(OC)cc2)csc1/N=C/C1C(=O)CCCC1=O
    ·	-5	i	1.5	·	·	101
> COc1ccc(CCNC(=O)CSc2nc3[nH]ncc3c(=O)n2-c2ccccc2Br)cc1OC
    ·	-6	i	1.1	14	115	108
> O=C(CSc1nnc(CNc2cccc(Cl)c2)o1)OC1CCCCC1
    -2.5	-2	i	1	6	262	98
> CN1/C(=C\C(=O)CSc2nnc(N)s2)C(C)(C)c2ccccc21
    -0.1	-7	i	0.95	-32	120	109
> O=C(O)CCCCCNc1ncnc2ccc(Br)cc12
    ·	4	i	0.96	·	·	94
> O=C1Nc2ccc([N+](=O)[O-])cc2C1(O)N1CCCCC1 (configuration not stated)
    -3.3	5	i	1	·	·	107
> CCOC(=O)C1CCN(c2c(N3CCN(c4ccccc4OC)CC3)c(=O)c2=O)CC1
    -1.6	-12	i	0.87	·	·	103
> CCOC(=O)C(C)Sc1nnc(-c2ccccc2O)n1-c1ccc(C)cc1 (configuration not stated)
    -1.9	3	i	1.2	-25	85	96
> O=C(CCN1C(=O)S/C(=C\c2ccccc2)C1=O)N1CCOCC1
    -0.7	-2	i	1.1	4	77	·
> C/C(=N\NC(=O)c1ccc(NS(=O)(=O)c2cccs2)cc1)c1ccc(C(C)(C)C)cc1
    -1.2	-5	i	0.91	·	·	97

Some of the entries so far, in CSV form:
smiles,GALR2 ag,PKD1 inh,HSV augment,HSV augment primary fold,INS promoter inh,INS promoter inh cell count,RGS16-Gao HTS
c1cncc(-c2cccnc2)c1,-2.5,-4,i,0.95,0,82,102
CC(C)(C)c1ccc(NC(=O)Nc2ccc(OCC(=O)N3CCOCC3)cc2)cc1,·,6,i,0.89,-12,129,113

(cont.)
Under each structure – GALR2 ag	PKD1 inh	HSV augment	HSV augment primary fold	INS promoter inh	INS promoter inh cell count	RGS16-Gao HTS
> O=C(/C=C/Nc1ccc(F)c(F)c1)c1ccc(Br)cc1
    1.1	-7	i	1	43	144	98
> Cc1ccccc1Cn1c(=N)n(CC(=O)c2ccco2)c2ccccc21
    -2.3	-14	i	0.96	·	·	116
> COc1ccc(-c2ccc(-c3noc(-c4ccccc4)n3)c(OC)n2)cc1
    -0.3	-7	·	·	-49	152	100
> Cc1ccc(C2(C)NC(=O)N(CC(=O)Nc3ccc(-c4nc5ccc(C)cc5s4)cc3)C2=O)cc1 (configuration not stated)
    ·	·	i	0.98	·	·	102
> CCc1ccc(OCC(=O)Nc2ccc(CN3CCCCC3)cc2)cc1
    -0.5	3	i	0.96	0	125	99
> Cn1c(=O)n(Cc2ccco2)c(=N)c2c3c(sc21)CCC3
    0.7	-7	i	0.93	26	53	161
> COc1cccc(/C=C/C(=O)OCC(=O)Nc2cccc(S(=O)(=O)N3CCCCC3)c2)c1OC
    -1.1	4	i	0.88	-7	116	101
> CC1CN(CCn2cnc3c(N)ncnc32)CC(C)O1 (configuration not stated)
    ·	·	i	0.9	·	·	100
> O=C(CN1CCN(c2ccccn2)CC1)N1CCc2ccccc21
    -1.4	-8	i	0.93	·	·	100
> O=C(Cn1c(=O)n(CCC(=O)N2CCc3ccccc3C2)c(=O)c2ccccc21)NCC1CCCO1 (configuration not stated)
    -2.0	-9	i	0.96	·	·	104
> CNC(=O)c1c(O)c2cccc3c2n(c1=O)CC3
    -3.7	-9	i	0.89	-144	131	·
> O=C(Nc1cccnc1)c1cccc(S(=O)(=O)N2CCCC2)c1
    ·	3	i	0.95	·	·	101
> COc1ccc(OCC(=O)Nc2ccccc2Cl)cc1
    ·	1	i	0.97	-14	127	100
> Cc1cc(NC(=O)c2ccc(NC(=O)CC(C)C)cc2)no1
    -1.0	-8	i	0.9	i	170	103
> CS(=O)(=O)N1CCC(C(=O)Nc2ccccc2Sc2ccccc2)CC1
    -1.2	-3	i	0.73	-50	89	101
> NC(=O)NC(=O)COC(=O)CCSc1ccccc1
    ·	0	i	1.1	18	111	111
> CCOC(=O)N1CCC(N2Cc3cccc(C(=O)Nc4cccc(F)c4)c3C2=O)CC1
    ·	10	i	0.91	56	97	98
> CN(C)CCCN(Cc1cc2cc3c(cc2[nH]c1=O)OCCO3)C(=O)NC1CCCCC1
    ·	·	i	0.89	·	·	95
> NC(=O)C1CCN(c2ccc([N+](=O)[O-])cc2Cl)CC1
    ·	5	i	0.97	-22	110	100
> COc1ccc(CC(=O)N/N=C/c2cccn2-c2ccc([N+](=O)[O-])cc2)cc1OC
    0.7	1	i	1	·	·	100
> CCc1ccc(-n2cccc2/C=C2/C(=N)N3C(=NC2=O)SN=C3S(C)(=O)=O)cc1
    ·	-6	i	0.93	-125	125	96
> CC(=O)OC[C@H]1O[C@@H](n2ncc(=O)[nH]c2=O)[C@H](OC(C)=O)[C@@H]1OC(C)=O
    -1.4	4	i	0.72	29	131	103
